Assay outcomes: PubChem BioAssay, Broad Institute
Beta apoptosis: beta cell apoptosis inhibition. INS-1E cytokine-induced death, ATP luminescence, 48 h; percent of positive-control rescue, neutral wells zero. protection from apoptosis, % (no concentration beside the values). hit rate 0.8% among 300,000;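 active means all replicates at 75% or more, or half of them and the mean; inconclusive means half reach 75% but not the mean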;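 further: 0% = cytokine-treated negative control wells and 100% = positive control rescue; higher means more ATP so stronger rescue from cytokine killing; wells of about 40 µL received 100 nL stock; the first replicate is given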
RanGTP-Imp inh: inhibitors of RanGTP-importin-beta interaction, primary screen, biochemical, FRET, CFP-Ran, YFP-importin-beta, homogeneous | cell-free CFP-Ran/YFP-importin-beta FRET ratio | hit rate 1.1% among 300,000 | inhibition, % (no concentration beside the values) | AID 2216;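 active means most replicates above 15%; inconclusive means exactly half above 15%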;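 further: 0% = DMSO wells and 100% = Ran loaded with GDP instead of GTP; wells of about 40 µL received 100 nL stock; the first replicate is given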
ALR inh: inhibitors of human sulfhydryl oxidase ALR. hit rate 3.8% among 290,000. inhibition, % (test concentration not listed). purified ALR, DTT oxidation, H2O2 HRP-luminol luminescence. P55789. AID 485317;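 active means mean and each replicate at 75% or more; inconclusive means only one of the two met; inactive means neither met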;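 further: stock transfer was 7.5 nL into about 7.5 µL; 0% = neutral wells and 100% = wells with inactivated enzyme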
Target sequence (P55789 whole entry, looked up): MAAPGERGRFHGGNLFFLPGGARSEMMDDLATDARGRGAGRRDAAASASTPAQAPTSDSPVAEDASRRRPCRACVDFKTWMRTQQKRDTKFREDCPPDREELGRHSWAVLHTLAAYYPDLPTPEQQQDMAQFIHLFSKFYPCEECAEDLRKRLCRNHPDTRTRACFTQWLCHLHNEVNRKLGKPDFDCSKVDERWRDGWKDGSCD
Calb FLC: affects C. albicans growth with fluconazole; C. albicans CaCi-2 (fluconazole-resistant clinical isolate) + fluconazole, Alamar Blue growth, 48 h; growth inhibition, % (no concentration beside the values); hit rate 0.57% among 300,000; AID 1979;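 active means most replicates above 75%; inconclusive means exactly half above 75%; inactive means most below 75%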;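 further: all wells also contain fluconazole at 8 µg/ml as a sub-toxic cotreatment; 0% = median of DMSO wells and 100% = median of geldanamycin control wells; wells of about 8 µL received 7.5 nL stock; the first replicate is given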
MLL AF4-AF9 inh: inhibitors of human MLL-AF4/AF9 interaction; P42568; AlphaScreen, biotin-AF4 peptide binding to FLAG-AF9; inhibition, % at 10 µM; hit rate 0.47% among 350,000;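 active means every replicate reaching a set inhibition limit, whatever the replicate mean, cut at about 25% in these data; inconclusive means mean inhibition reaches that limit but some replicates miss it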;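 further: 0% = plate neutral control median and 100% = total signal loss; the record names both 10 and 1 µM as test concentration; the first replicate is given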
Target sequence (P42568 whole entry, looked up): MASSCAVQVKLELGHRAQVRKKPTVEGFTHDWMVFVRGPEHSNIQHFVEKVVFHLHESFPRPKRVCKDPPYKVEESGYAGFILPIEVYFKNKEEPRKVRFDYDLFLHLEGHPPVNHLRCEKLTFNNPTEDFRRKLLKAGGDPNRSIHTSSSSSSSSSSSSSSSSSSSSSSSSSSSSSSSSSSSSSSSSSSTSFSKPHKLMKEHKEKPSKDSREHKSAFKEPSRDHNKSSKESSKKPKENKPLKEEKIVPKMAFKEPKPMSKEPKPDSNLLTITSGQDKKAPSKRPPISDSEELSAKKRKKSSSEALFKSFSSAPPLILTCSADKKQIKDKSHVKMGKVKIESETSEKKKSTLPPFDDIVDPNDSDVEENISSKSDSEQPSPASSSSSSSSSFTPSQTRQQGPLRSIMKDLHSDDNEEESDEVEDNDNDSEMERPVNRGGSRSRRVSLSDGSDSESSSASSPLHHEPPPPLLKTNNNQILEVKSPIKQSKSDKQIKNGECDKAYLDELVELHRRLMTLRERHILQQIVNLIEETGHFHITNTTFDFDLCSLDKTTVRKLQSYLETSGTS
T cruzi inh: blocks replication of Trypanosoma cruzi; inhibition, % (test concentration not listed); hit rate 1.4% among 300,000; T. cruzi beta-gal in NIH3T3, luminescence, 90 h;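 active means mean inhibition across valid replicates above about 55%, limit read from the data; inconclusive means mean below that limit but half or more replicates reach it; inactive means mean below it, under half of replicates reach it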;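 further: signal also drops with host cell toxicity which is not excluded here; 0% = plate median of DMSO wells and 100% = zero luminescence signal; higher percent means less beta-gal luminescence so fewer parasites; stock transfer was 50 nL into about 50 µL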
Ecoli rRNA inh: inhibits bacterial ribosomal RNA function over humanized ribosomes | AID 720706 | hit rate 1.6% among 350,000 | E. coli WT GFP vs humanized-ribosome RFP mutants, fluorescence, 24 h; active compounds read low; DMSO median 0, no signal -100 | GFP signal change (wild-type ribosome), % (no concentration beside the values);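 active means significant combined selectivity score with lowered wild-type GFP, culture density cut under 30%, mutant RFP and density less affected; inactive means any of these conditions unmet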; further: one replicate is shown; some compounds called inactive have numbers as strong as hits
FGF22 binding: shifts melting point of recombinant human FGF22. Q9HCT0. recombinant FGF22 thermal shift, SYPRO orange fluorescence; percent of sucrose octasulfate shift, DMSO zero. calls only at 9.99 µM. hit rate 1.5% among 340,000. AID 651658;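 active means melting point raised past a set limit in the mean and every replicate; inconclusive means no clear call; three in four hits are not shown here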
Target sequence (Q9HCT0 whole entry, looked up): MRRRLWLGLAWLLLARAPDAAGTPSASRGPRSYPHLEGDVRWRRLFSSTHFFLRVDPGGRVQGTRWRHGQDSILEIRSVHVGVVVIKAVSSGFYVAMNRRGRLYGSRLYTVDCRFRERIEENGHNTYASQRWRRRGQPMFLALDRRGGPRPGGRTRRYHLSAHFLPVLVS
Ecoli rRNA inh OD600: also measured in Ecoli rRNA inh; calls as there; OD600 change, %; measured here: OD600 growth;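 optical density of the mix in the first replicate; 0 = DMSO median and -100 = no signal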
Ecoli rRNA inh RFP: recorded beside Ecoli rRNA inh, whose call it bears; RFP signal change, %; measured here: RFP humanized mutant strains;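 first replicate; 0 = DMSO median and -100 = no signal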
Active calls of the source: *; i = inactive; u = inconclusive; x = not tested or not shown; & = joins results of further samples.

SMILES	Beta apoptosis	RanGTP-Imp inh	ALR inh	Calb FLC	MLL AF4-AF9 inh	T cruzi inh	Ecoli rRNA inh	Ecoli rRNA inh OD600	Ecoli rRNA inh RFP	FGF22 binding
OCC1CCCCN1CC(O)COC(c1ccc(F)cc1)c1ccc(F)cc1 (stereo not drawn)	-9	4.7	31	0	6.2	-12	3	4	3.0	i
COc1ccc(OCC(=O)Nc2c(C(=O)N(CCN(C)C)Cc3ccco3)oc3ccccc23)cc1	0	2.4	-2	69	16	53	-9	2	24	i
NC(=O)c1ccc(-n2nnnc2SCC(=O)Nc2ccccc2F)cc1	1	-1.6	-10	1	-1.1	-1	9	10	1.1	i
O=C(Nc1ccc(C(=O)N2CCCCC2)cc1)C1CCCCC1	-4	1.1	-10	8	x	-8	x	x	x	x
O=c1[nH]c(CNCc2cccnc2)nc2ccccc12	-5	1.0	3	-3	-1.0	-3	17	9	4.2	i
COc1ccccc1N=Cc1c(O)c2ccccc2oc1=O	-3	4.8	0	12	x	-9	x	x	x	x
N#CC1=C(N)OC(c2ccccc2)=C(C#N)C1c1ccc2c(c1)OCO2 (stereo not drawn)	1	2.9	x	41	x	-15	x	x	x	x
Cc1ccc(-c2cc(C(=O)NCCCN3CCOCC3)c3ccccc3n2)cc1	-3	x	-4	-7	2.3	-16	9	11	3.0	i
O=C(/C=C/c1ccco1)N1CCc2ccccc21	8	2.2	-11	12	-0.5	-6	-1	8	1.9	i
CN1C(=O)/C(=C/c2ccco2)SC1=Nc1cccc(C(=O)O)c1	2	-1.6	2	27	x	8	x	x	x	x
COc1ccc(-n2c(-c3ccc(Br)cc3)c[n+]3c2CCC3)cc1	76*	1.9	-5	-5	1.7	41	-50	-63	11	x
O=S(=O)(c1ccc(Cl)nc1)N1CCCc2ccccc21	1	-1.0	x	0	x	-1	x	x	x	x
Cn1c(=O)oc2cc(S(=O)(=O)NC3CCN(Cc4ccccc4)CC3)ccc21	0	-1.3	4	6	5.7	-5	2	7	1.9	i
COc1cc(/C=C2\SC(c3ccc(C)cc3)=NC2=O)cc(OC)c1OC	6	-0.6	-1	7	x	-3	x	x	x	x
CC(C)C(NC(=O)Cc1ccccc1)C(=O)N1CCN(c2cccc(Cl)c2)CC1 (stereo not drawn)	14	x	x	x	1.7	x	-21	-67	3.1	i
CCC(C)(C(=O)NC1CCCC1)N(Cc1cccs1)C(C)=O (stereo not drawn)	2	3.5	-5	14	x	6	x	x	x	x
Cc1ccc(N2CS(=O)(=O)/C(=C/N(C)C)C2=O)cc1	-4	2.3	-4	u	x	-9	x	x	x	x
c1ccc(CCCOCCC2CO2)cc1 (stereo not drawn)	x	5.2	1	-3	x	-2	x	x	x	x
S=c1[nH]nc(-c2ccncc2)n1/N=C/c1cn(-c2ccccc2)nc1-c1ccccc1	-20	-4.7	-14	3	-3.8	11	5	8	0.0	i
O=S(=O)(c1ccccc1)C(/C=N\O)/C=C/c1ccccc1 (stereo not drawn)	-7	-0.1	26	0	-8.4	-39	3	2	-0.5	i

The list goes on, starting with the last two of the part before.
SMILES	Beta apoptosis	RanGTP-Imp inh	ALR inh	Calb FLC	MLL AF4-AF9 inh	T cruzi inh	Ecoli rRNA inh	Ecoli rRNA inh OD600	Ecoli rRNA inh RFP	FGF22 binding
S=c1[nH]nc(-c2ccncc2)n1/N=C/c1cn(-c2ccccc2)nc1-c1ccccc1	-20	-4.7	-14	3	-3.8	11	5	8	0.0	i
O=S(=O)(c1ccccc1)C(/C=N\O)/C=C/c1ccccc1 (stereo not drawn)	-7	-0.1	26	0	-8.4	-39	3	2	-0.5	i
O=C(N=C1SC2CS(=O)(=O)CC2N1c1ccc(F)cc1)C1CCCCC1 (stereo not drawn)	-10	1.4	6	-8	0.4	5	6	18	2.1	i
O=C1C(=O)N(CCCN2CCOCC2)C(c2ccc(Cl)cc2)/C1=C(\O)c1ccc2c(c1)OCCO2 (stereo not drawn)	-7	0.0	11	-5	0.5	-9	5	6	-0.2	i
CCN(C(=O)CN1C(=O)S/C(=C\c2ccc(Cl)cc2)C1=O)C1CCS(=O)(=O)C1 (stereo not drawn)	-2	1.0	35	-4	-0.7	-24	1	2	-5.1	i
CCOc1cc(S(=O)(=O)n2nc(C)cc2C)ccc1F	2	2.4	-10	30	x	-8	x	x	x	x
O=C(CS(=O)(=O)c1cn(CC(=O)N2CCOCC2)c2ccccc12)Nc1ccccc1F	x	-3.5	2	-7	-0.7	1	x	x	x	i
COC(=O)C(C)Sc1nnc(SC(C)C(=O)OC)s1 (stereo not drawn)	-4	u	-8	-6	x	-18	12	7	-0.6	x
COc1ccc(NC(=O)c2c3c(nc4ccccc24)CCC3)cc1S(=O)(=O)N1CCOCC1	-4	3.7	x	1	x	-10	x	x	x	x
CC(Sc1nnc2n1CCCCC2)C(=O)Nc1ccccc1[N+](=O)[O-] (stereo not drawn)	4	x	x	x	-0.9	x	3	1	-2.1	i
CCC1(c2ccc(F)cc2)NC(=O)N(CC(=O)c2cc(C)n(C3CC3)c2C)C1=O (stereo not drawn)	-1	u	x	2	-13	18	-3	-22	9.7	i
CC(=O)c1ccc(OC(C)C)c(CSc2nc(O)cc(=O)[nH]2)c1	-3	4.3	-10	1	x	-4	x	x	x	x
Cc1ccc(C(C)c2c(C)c([N+](=O)[O-])cc(C)c2[N+](=O)[O-])cn1 (stereo not drawn)	-12	1.1	5	13	2.8	-5	-15	-15	-2.7	i
O=S(=O)(NCc1cccs1)c1ccc(Cl)s1	-2	x	-4	x	0.4	-2	-2	-4	1.9	i
O=C(CNc1cccc(S(=O)(=O)N2CCOCC2)c1)Nc1cccc(Br)c1	-4	3.8	0	-7	1.6	-1	-13	-15	0.3	i
COC(=O)C(CCCN1C(=O)c2ccccc2C1=O)(NC(C)=O)c1nn[nH]n1 (stereo not drawn)	-6	-1.6	x	19	-2.6	-9	22	15	-2.0	x
Cc1ccc(NC(=O)CCn2nc([N+](=O)[O-])cc2C)nc1	2	7.1	-9	4	6.2	2	5	1	-4.6	i
Nc1cc(F)ccc1N1CCCCCC1	13	-3.9	-16	-20	9.0	18	3	9	21	i
COc1ccc(S(=O)(=O)N2CCCC2C(=O)NCc2ccccc2Cl)cc1 (stereo not drawn)	-19	-2.3	-5	9	-1.4	6	-13	-14	1.4	i
O=C(O)c1cc(S(=O)(=O)O)ccc1O	-5	2.9	-5	-3	x	-3	x	x	x	x
O=C(CN1C(=O)CNC1=O)Nc1ccc(Cl)cc1	-7	1.8	-3	-1	-5.2	2	0	3	1.0	i
CCOC(=O)c1cc2sccc2n1CC(=O)N1c2ccccc2CC1C (stereo not drawn)	10	-2.6	-2	-4	x	30	x	x	x	x
CC(=O)N1CCC(C(=O)NCCOc2cccc(C)c2)CC1	-2	-0.4	-6	-1	26*	-5	7	2	0.5	i
Cc1ccccc1-c1ccc(Nc2ccc(N3CCOCC3)cc2)nn1	1	-11	93*	-6	x	70*	x	x	x	x
Cc1cc(C)nc(NS(=O)(=O)c2ccc(NC(=O)C(C)C)cc2)n1	-4	0.9	-6	10	-1.6	-10	x	x	x	i
Cc1c(C=O)c2ccccc2n1CCOc1ccccc1F	29	-2.5	-7	-5	-0.3	16	14	9	0.1	i
Cc1cccc(OCCCCn2c(CO)nc3ccccc32)c1	-13	-1.4	-5	-1	1.5	-7	-26	-56	1.3	i
O=C(OCc1nnc(-c2ccc(Cl)cc2)o1)c1ccncc1	-3	2.7	3	31	x	-5	x	x	x	x
Cc1ccc(S(=O)(=O)NCC(=O)NCC(=O)NCCc2ccccc2F)cc1C	2	x	x	x	-6.7	x	-3	-2	-0.6	i
COc1ccc(C2=NOC(C)(c3nnc(-c4ccc(Cl)cc4)o3)C2)cc1 (stereo not drawn)	-6	2.6	-2	22	-14	-12	-15	-14	3.9	i
COCc1cc(C)n(CC(=O)OC)c(=O)c1C#N	-9	-3.1	-6	1	-1.9	-22	x	x	x	i
Cc1noc(C)c1S(=O)(=O)Nc1ccc2c(c1)C(=O)N([C@H](C)CO)C[C@@H](C)[C@@H](CN(C)Cc1ccc3c(c1)OCO3)O2	-7	x	x	x	3.6	x	4&11	9&7	-0.7&4.3	i
COc1cc(/C=C/C(=O)NC(=O)c2ccccc2O)ccc1O	-1	-1.5	x	19	-1.1	-23	-8	-29	-7.6	i
CCOCCCNC(=O)C(NC(=O)c1ccc(NC(C)=O)cc1)c1ccc(Cl)cc1 (stereo not drawn)	-8	-2.5	-8	-3	1.6	-3	0	5	-2.5	i
CCN1CCN(C(=O)COCc2cc(-c3ccc4c(c3)OCO4)on2)CC1	-1	5.8	-23	3	0.9	14	6	9	-2.0	i
Cc1ccc(C(=O)Oc2cccc(NC(=O)c3ccccc3)c2)cc1C	2	2.5	-5	-14	x	12	x	x	x	x
COc1ccc(C2NC(=O)C(=O)/C2=C(\O)c2ccc(Cl)cc2)cc1OC (stereo not drawn)	-8	6.4	3	-2	1.3	1	-7	1	2.9	i
CCc1ccc(N2CC(C(=O)OCc3nc4ccsc4c(=O)[nH]3)CC2=O)cc1 (stereo not drawn)	-8	x	4	x	1.0	x	-2	4	4.9	i
CCOC(=O)N1CCN(C(=O)CSc2nc3nc(C)cc(C)n3n2)CC1	4	x	-3	x	-0.2	x	19	7	3.0	i
CSCCC(NC(=O)c1ccccc1)C(=O)NCc1ccc(S(N)(=O)=O)cc1 (stereo not drawn)	-2	-0.8	8	-2	1.9	-11	6	11	-2.0	i
COc1ccc(S(=O)(=O)Nc2ccc(C)cn2)cc1	0	5.4	2	-2	-11	-3	11	6	-3.0	i
Cc1cc(Cl)ccc1C(=O)C1CCCN(C(=O)c2n[nH]c3c2CCCC3)C1 (stereo not drawn)	8	21*	-5	-42	-6.3	-4	-36	-55	-4.5	i
CC(C)c1ccc(NC2CCCN(C(=O)CC3CCCC3)C2)cc1 (stereo not drawn)	9	u	79*	-3	12	15	-11	-29	4.4	i
CN(C(=O)c1ccccc1F)C(c1ccccc1)c1ccccc1	1	-4.2	x	-22	0.1	15	-27	-50	-2.1	i
C=CCOc1cccc(/C=C/c2nc3ccccc3c(=O)[nH]2)c1	-5	0.4	x	-1	2.6	2	11	21	5.5	i
CCCOP(=O)(OCCC)C(Nc1ccc(C(=O)O)cc1)c1ccccc1 (stereo not drawn)	5	-0.6	-1	0	-0.2	-1	8	-8	-2.3	i
COc1ccc(CC(=O)OCC(=O)Nc2ccc(OC(F)F)cc2)cc1OC	-4	x	8	x	-4.3	x	-9	-6	-2.3	i
CCC(=O)Nc1ccc(-c2csc(NNC(C)=O)n2)cc1	-11	-6.0	99*	-16	-7.7	-11	4	4	-1.3	i
O=C(CN1CCc2ccccc2C1)Nc1ccccc1C(F)(F)F	-6	3.3	-5	8	-3.9	-6	6	-6	2.9	i

These rows are one share of the data; count on the stated rates, not on these rows.
